Cruzain inh noDet = qHTS Assay for Promiscuous and Specific Inhibitors of Cruzain (without detergent) | Cruzipain (Trypanosoma cruzi), P25779 | Potency, µM, inactives show max response, negative = inhibition, most hits filed as inhibitors | AID 1476, 2009 | 200,000 compounds, 2.3% hits | purified cruzain, Z-FR-AMC fluorescence, no detergent;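 note: plate controls were enzyme without inhibitor for no effect and buffer without enzyme for full effect; nearly all actives have a fitted effect of over 40% in size; top concentration of the series not given in the record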
Target sequence (P25779 123-467 limits assumed): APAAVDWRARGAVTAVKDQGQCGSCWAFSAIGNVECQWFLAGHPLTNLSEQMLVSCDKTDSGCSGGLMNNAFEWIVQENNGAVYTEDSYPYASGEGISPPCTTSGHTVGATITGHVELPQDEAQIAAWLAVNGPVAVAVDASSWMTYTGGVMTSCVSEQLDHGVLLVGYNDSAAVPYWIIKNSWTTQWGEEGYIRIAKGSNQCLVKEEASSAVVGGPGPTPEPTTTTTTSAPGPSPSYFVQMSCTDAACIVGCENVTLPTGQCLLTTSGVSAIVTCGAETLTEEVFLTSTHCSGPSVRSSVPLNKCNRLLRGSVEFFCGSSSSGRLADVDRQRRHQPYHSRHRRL
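Purified cruzain at 1.5 nM, pre-incubated 15 min with compound at room temperature in 100 mM sodium acetate pH 5.5, 5 mM DTT, 0.00005% Triton X-100. Reaction started with 2 uM Z-FR-AMC; AMC fluorescence increase over 60 s gives rate.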
Cruzain Triton = qHTS Assay for Promiscuous and Specific Inhibitors of Cruzain (with detergent). purified cruzain, Z-FR-AMC fluorescence, 0.01% Triton. AID 1478, 2009. Potency, µM, inactives show max response, negative = inhibition, usual class: inhibitors. 200,000 compounds, 0.43% hits. Cruzipain (Trypanosoma cruzi), P25779;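 note: plate controls were neutral wells for no effect and buffer without enzyme for full effect; nearly all actives have a fitted effect of over 40% in size; top concentration of the series not given in the record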
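Detergent-containing run (0.01% Triton X-100) in acetate buffer pH 5.5 with 5 mM DTT: enzyme at 1.5 nM final, 15 min compound preincubation at room temperature, then 2 uM Z-FR-AMC substrate. Activity taken as 60 s fluorescence increase at 360/450 nm.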
* hit, by the source's call; ? = inconclusive. Calls come from the whole dose curve; as a rule, active = well fitted curve in the direction sought with a large enough effect; inconclusive = small, poorly fitted or top-dose-only effect, or another doubt; inactive = no such curve, though single readings can be large; an effect the other way counts as inactive or inconclusive. Potency is the fitted concentration of half-maximal effect.

nr	SMILES	Cruzain inh noDet	Cruzain Triton
1	CCCn1c(-c2ccc(F)cc2)nc2c(NCCCN3CCOCC3)nc(C)nc21	-4%	7.1%
2	C[C@@]12CC[C@H]3[C@@H](CC[C@@H]4C[C@H]5S[C@H]5C[C@]43C)[C@H]1CC[C@H]2O	-16%	-8.5%
3	CCCn1c(C)nc2c(NC3CCN(Cc4ccccc4)CC3)nc(C)nc21	-8%	5.6%
4	COC1CCC(C(=O)c2ccc3nc4c(cc3c2)CCCO4)CC1 (stereo not drawn)	1%	-7.4%
5	CCC(C)C1NC(=O)C(CCNCS(=O)(=O)O)NC(=O)C(NC(=O)C(CCNCS(=O)(=O)O)NC(=O)C(NC(=O)C(CCNCS(=O)(=O)O)NC(=O)CCCCC(C)C)C(C)O)CCNC(=O)C(C(C)O)NC(=O)C(CCNCS(=O)(=O)O)NC(=O)C(CCNCS(=O)(=O)O)NC(=O)C(C(C)CC)NC1=O (stereo not drawn)	?	-5.6%
6	COc1cccc([C@@H]2Oc3ccc(Br)cc3C[C@H]2OC(=O)NS(=O)(=O)c2ccc(F)cc2)c1	-7%	3.1%
7	COC(=O)N1CC=CC1(C)C(=O)NCC1CC1 (stereo not drawn)	-9%	-6.7%
8	Cc1ccc([N+](=O)[O-])c(C)c1	4%	2.4%
9	OCC(O)C(O)C(O)C(O)CO (stereo not drawn)	0%	-0.5%
10	COC(=O)[C@@]1(Cc2ccccc2)[C@H]2c3cc(C(=O)N4CCCC4)n(Cc4cccc5ccccc45)c3C[C@H]2CN1C(=O)c1ccccc1	0%	-0.7%
11	CCCc1cc2c(n1Cc1ccc(OC)cc1)C(C)C1CN(C(=O)c3ccccc3)C(C)(C(=O)OC)C21 (stereo not drawn)	?	-5.2%
12	CCCCC/C=C\C/C=C\CCCCCCCCCC(=O)NCCc1ccc(O)c(O)c1	-19%	2.8%
13	CC(O)CCl (stereo not drawn)	0%	1.6%
14	COC(=O)[C@@H]1[C@@H]2C[C@H]3c4[nH]c5cc(OC)ccc5c4CCN3C[C@@H]2C[C@H](OC(=O)/C=C\c2cc(OC)c(OC)c(OC)c2)[C@H]1OC	-6%	-7.8%
15	CCCn1c(C)nc2c(NCC(C)(C)CN(C)C)nc(C)nc21	-8%	4.6%
16	COC(=O)CCC(C)C1CCC2C3C(C[C@H](O)C12C)C1(C)CC[C@@H](O)CC1C[C@H]3O (stereo partly drawn)	?	0.5%
17	CCOC(=O)CNC(=O)O[C@H]1C(=O)c2cc(OC)ccc2O[C@@H]1c1ccc(OC)c(Br)c1	13µM*	-0.7%
18	Cc1nc(NCc2ccccc2)c2nc(-c3ccccc3)n(CCN3CCCC3)c2n1	-5%	2.2%
19	C/C=C1/C2C=C(C)CC1(N)c1ccc(=O)[nH]c1C2 (stereo not drawn)	5%	1.8%
20	COC(=O)[C@@H]1C[C@H]1[C@@H](NC(=O)c1cnccn1)c1ccccc1	-4%	1.4%
21	O=Cc1ccc(B(O)O)cc1	-2%	2.3%
22	C=CCSC[C@@H]1Nc2cc(Cl)c(S(N)(=O)=O)cc2S(=O)(=O)N1	-9%	2.4%
23	C#CC1(O)CCC2C3CCC4=CC(=O)CCC4(C)C3CCC21C (stereo not drawn)	-8%	-1.9%
24	C=CCOc1ccc(CC(=O)O)cc1Cl	-3%	-2.7%
25	NC1CCC(CC2CCC(N)CC2)CC1 (stereo not drawn)	4%	-0.1%
26	CCC/C=C(\CCC)C(NC(=O)c1ccc(C(F)(F)F)cc1)c1ccc(C(F)(F)F)cc1 (stereo not drawn)	1%	-0.2%
27	C[C@@H]1C[C@H](OC(=O)c2ccccc2O)CC(C)(C)C1	-7%	0.8%
28	CCCCC[C@H](O)/C=C/C=C\CCCCCCCCCC(=O)O	-3%	2.5%
29	C[C@@H](C(=O)O)c1ccc(N2Cc3ccccc3C2=O)cc1	7%	-0.6%
30	CCCn1c(-c2ccc(F)cc2)nc2c(NCCCN(CC)CC)nc(C)nc21	5%	-2.7%
31	CC1(C)S[C@H]2C(NC(=O)[C@@H](N)c3ccc(O)cc3)C(=O)N2[C@@H]1C(=O)O (stereo partly drawn)	19%	-2.2%
32	COC(=O)[C@@]1(Cc2ccccc2)[C@H]2c3cc(C(=O)N4CCCC4)n(Cc4ccccn4)c3C[C@H]2CN1C(=O)c1ccccc1	?	-0.8%
33	CC/C=C\C/C=C\C/C=C\C/C=C\C/C=C\CCCC(=O)NCCO	-6%	4.2%
34	COc1ccc(-c2nc(-c3ccccc3)oc2NC(C)C)cc1	-9%	2.0%
35	CC[C@H]1C2CC3[C@@H]4N(C)c5ccccc5[C@]45C[C@@H](C2[C@H]5O)N3[C@@H]1O (stereo partly drawn)	7%	-0.3%
36	CCN1C[C@@]2(COC(=O)c3ccccc3N3C(=O)CC(C)C3=O)CC[C@H](OC)[C@]34C5C[C@@H]6[C@@H](OC)C[C@@](O)(C5[C@H]6OC)[C@@](O)(C13)[C@@H](OC)C24 (stereo partly drawn)	1%	3.5%
37	NCCC[C@@H](CC(=O)N[C@@H]1CCNC[C@H]1C(=O)N[C@H](CC(=O)N[C@@H](CCC(=O)O)CC(=O)O)Cc1ccccc1)NC(=O)C[C@H](Cc1c[nH]c2ccccc12)NC(=O)[C@@H]1CCCC[C@H]1N	-18%	-0.6%
38	O=C=Nc1ccc(Cl)c(Cl)c1	?	-0.5%
39	COC(=O)[C@@]1(Cc2ccc(OC)cc2)[C@H]2c3cc(C(=O)N4CCCC4)n(CCF)c3C[C@H]2CN1C(=O)c1ccccc1	?	-3.6%
40	COC(=O)CCCC1=CC2=CC(=O)C(C)(OC(=O)c3ccco3)C(=O)C2=CO1 (stereo not drawn)	11%	-4.4%
41	CCCC[C@@H]1C[C@H]1C(NC(=O)c1ccc(C(F)(F)F)cc1)c1ccc(C(=O)OC)cc1 (stereo partly drawn)	2%	-5.8%
42	COC(=O)c1ccc(C(NC(=O)OCc2ccccc2)/C(=C/[C@@H](C)C(=O)N(C)Cc2ccccc2)c2cccnc2)cc1 (stereo partly drawn)	?	-0.7%
43	CNC(=O)[C@@H]1C[C@H]1[C@@H](NP(=O)(c1ccccc1)c1ccccc1)c1ccccc1	-4%	-0.5%
44	CC[C@@H]1CN2CCc3cc(OC)c(OC)cc3[C@H]2C[C@@H]1C[C@@H]1NCCc2cc(O)c(OC)cc21	-6%	-5.4%
45	c1ccc([Se]c2c(-c3ccccc3)[se]c3ccccc23)cc1	-27%	0.6%
46	Cc1nc(NCc2ccccc2)c2nc(-c3ccccc3)n(CCN3CCCCC3)c2n1	-2%	-1.9%
47	CC(C)C[C@@H](CC(=O)N[C@@H](CCC(=O)O)CC(=O)O)NC(=O)[C@@H]1CCCC[C@H]1NC(=O)C[C@@H](NC(=O)C[C@H](CO)NC(=O)[C@@H]1CCCC[C@H]1N)C(C)C	13%	0.4%
48	CC(C)NC[C@H]1CCc2cc(CO)c([N+](=O)[O-])cc2N1	-13%	2.2%
49	COC(=O)[C@@]1(Cc2ccccc2)[C@H]2c3cc(C(=O)N(C)C)n(Cc4ccccn4)c3C[C@H]2CN1C(=O)c1ccccc1	?	4.8%
50	NCC1CCC(N)C(O[C@@H]2C(O)[C@H](O[C@H]3OC(CO)C(O)C(N)C3O)[C@@H](N)C[C@H]2N)O1 (stereo partly drawn)	15%	2.9%
51	CC1(C)OCC(CSC2=C(SCC3COC(C)(C)O3)C(=O)c3ncccc3C2=O)O1 (stereo not drawn)	?	16µM*
52	O=C(O)c1sccc1S(=O)(=O)Nc1ccc(Cl)cc1	-1%	-4.3%
53	COC(=O)[C@@]1(Cc2ccc(OC)cc2)[C@H]2c3cc(C(=O)N(C)C)n(C)c3C[C@H]2CN1C(=O)c1ccccc1	?	-5.7%
54	CSc1nnc(SC)nn1	7%	1.3%
55	C[C@H](C(=O)O)c1cccc(Oc2ccccc2)c1	-2%	1.1%
56	CCCCCCCCCCCCC/C=C/[C@@H](O)C(CO)NC(C)=O (stereo partly drawn)	6%	-0.9%
57	COC(=O)c1ccc(C(/C=C/[C@@H](C)C(=O)NCc2ccccc2)NC(=O)OCc2ccccc2)cc1 (stereo partly drawn)	1%	1.4%
58	CC(C)(O)c1[se]c2ccccc2c1I	-10%	-1.5%
59	CCC1=C2CC[C@H]3C(=O)N(CC(=O)OC)C(=O)[C@H]3[C@H]2[C@@]2(C)C(=O)N(Cc3ccccc3)C(=O)N2C1=O	-5%	6.6%
60	COC(=O)c1ccc(C(NC(=O)OCc2ccccc2)/C(I)=C/[C@@H](C)C(=O)NCc2ccc(OC)c(O)c2)cc1 (stereo partly drawn)	-4%	-1.6%

(further entries)
nr	SMILES	Cruzain inh noDet	Cruzain Triton
61	COC/C=C/C1=CC2=CC(=O)C(C)(OC(=O)c3cccs3)C(=O)C2=CO1 (stereo not drawn)	-1%	5.4%
62	CC(C)[C@@H](CC(=O)N[C@@H]1CCNC[C@H]1C(=O)N[C@H](CC(=O)N[C@@H](CCC(=O)O)CC(=O)O)Cc1c[nH]c2ccccc12)NC(=O)C[C@H](CO)NC(=O)[C@@H]1CCCC[C@H]1N	-6%	3.2%
63	C[N+](C)(CCCOc1ccccc1)c1ccccc1	-2%	-2.6%
64	[O-][Cl+]O	2%	-2.4%
65	Nc1ccc(N)c(Cl)c1	-28%	-8.3%
66	COc1ccc2c(c1)C(=O)[C@@H](OC(=O)NCc1ccco1)[C@H](c1ccc(OC)c(Br)c1)O2	-10%	-4.2%
67	O=S(=O)(Cl)c1ccccc1	-3%	4.2%
68	CCOC(=O)/C=C/CCCC=O	-7%	-0.7%
69	CNC(=O)[C@@]1(C)C=C[C@@H](Cc2ccccc2)N1C(C)=O	-7%	4.1%
70	CCCCOCC1CO1 (stereo not drawn)	5%	-2.0%
71	CC(C)=CCC/C(C)=C/CC/C(C)=C/CSCC(=O)O	-5%	-0.6%
72	C[C@H]1C(=O)O[C@H]2CCN3CC=C(COC(=O)[C@](C)(O)[C@@]1(C)O)C23 (stereo partly drawn)	1%	2.8%
73	CO[Si](CCCNCCC[Si](OC)(OC)OC)(OC)OC	-2%	0.5%
74	CC[C@@H]1OC(=O)[C@H](C)[C@H](O[C@@H]2C[C@](C)(OC)[C@H](O)[C@H](C)O2)[C@H](C)[C@H](O[C@@H]2O[C@@H](C)C[C@@H](N(C)C)[C@@H]2O)[C@](C)(O)C[C@H](C)C(=NOCOCCOC)[C@H](C)[C@H](O)[C@]1(C)O	1%	2.5%
75	COc1ccc([N+](=O)[O-])cc1N	-11%	-0.8%
76	COc1cc2c(cc1O)C[C@H]1c3c(cc(OC)c(O)c3-2)CCN1C	0%	-3.9%
77	CCCCCCCCCCCCCCCC(=O)OCC(O)C1OC(=O)C(O)=C1O (stereo not drawn)	?	-14%
78	O=C(O)c1cc(=O)[nH]c(=O)[nH]1	8%	-0.1%
79	C=C1c2ccccc2O[C@H](C(=O)OCC)[C@@H]1C1CCCCC1 (tested in a mixture with another compound)	9%	3.8%
80	CCCCC/C=C\C/C=C\C/C=C\C/C=C\CCCC(=O)NC1CC1	5%	7.3%
81	CSC(=S)NCc1c[nH]c2ccccc12	-13%	-2.7%
82	OCC1OC(O)C(O)C(O)C1O (stereo not drawn)	8%	-1.8%
83	CO/N=C(/C(=O)N[C@@H]1C(=O)N2C(C(=O)O)=C(COC(N)=O)CS[C@H]12)c1ccco1	-7%	-11%
84	CN(C)c1nc(N)c(C(=O)Nc2cccnc2)nc1Cl	3%	-14%

A stretch from the list above, as a working copy:
nr	SMILES	Cruzain inh noDet	Cruzain Triton
78	O=C(O)c1cc(=O)[nH]c(=O)[nH]1	8%	-0.1%
79	C=C1c2ccccc2O[C@H](C(=O)OCC)[C@@H]1C1CCCCC1 (tested in a mixture with another compound)	9%	3.8%
80	CCCCC/C=C\C/C=C\C/C=C\C/C=C\CCCC(=O)NC1CC1	5%	7.3%
81	CSC(=S)NCc1c[nH]c2ccccc12	-13%	-2.7%
82	OCC1OC(O)C(O)C(O)C1O (stereo not drawn)	8%	-1.8%
83	CO/N=C(/C(=O)N[C@@H]1C(=O)N2C(C(=O)O)=C(COC(N)=O)CS[C@H]12)c1ccco1	-7%	-11%

Three entries from above, arranged by count of non-hydrogen atoms, high to low.
nr	SMILES	Cruzain inh noDet	Cruzain Triton
66	COc1ccc2c(c1)C(=O)[C@@H](OC(=O)NCc1ccco1)[C@H](c1ccc(OC)c(Br)c1)O2	-10%	-4.2%
69	CNC(=O)[C@@]1(C)C=C[C@@H](Cc2ccccc2)N1C(C)=O	-7%	4.1%
78	O=C(O)c1cc(=O)[nH]c(=O)[nH]1	8%	-0.1%

Assay outcomes deposited in PubChem by National Center for Advancing Translational Sciences (NCATS).

These rows are one share of the data, so the mix of outcomes need not match the whole.
